Screening data as filed in PubChem.
gsp antagonist: antagonizes gsp, the McCune-Albright syndrome mutation. gsp-mutant cells, cAMP HTRF, 30 min; control for the full effect not named in the record. Potency, µM (titrated, usually from 76.9 µM), inactives show at the top dose activity change, negative = inhibition, usual class: inhibitors. actives 0.4% (n = 340,000). AID 624288; active = falling curve of any shape with a large fitted effect; inconclusive = falling curve, mostly with a smaller effect; inactive = flat or rising curve; cell line not stated here;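 also: intracellular cAMP measured with PDE inhibitor Ro 20-1724 present during compound exposure; potency is read from the fitted curve at half-maximal effect; % is scaled to controls: 0 for no effect and ±100 for the full control effect; nearly all actives have a fitted effect of over 65% in size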
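Cells in G418 medium, seeded 16-24 h, 37C; buffer exchange to DPBS + 1 mM CaCl2, 0.5 mM MgCl2, 0.05% BSA; cpds in DMSO + […] (300 uM stock), 30 min 37C; HTRF cAMP detection.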
TRPML1 agonist: agonists of human TRPML1 channel | TRPML1-expressing cells, Ca2+ dye fluorescence, FDSS; host cell line not named in the record; reference of the full effect not given here | Q9GZU1 | activation, % (no concentration beside the values) | actives 0.12% (n = 410,000); in the data active = activation above about 50%; inconclusive = about 30% to 50%; inactive = below about 30%; also: 0% is about no effect; the text of the record puts the active cut at 80%
Target sequence (Q9GZU1 whole entry, looked up): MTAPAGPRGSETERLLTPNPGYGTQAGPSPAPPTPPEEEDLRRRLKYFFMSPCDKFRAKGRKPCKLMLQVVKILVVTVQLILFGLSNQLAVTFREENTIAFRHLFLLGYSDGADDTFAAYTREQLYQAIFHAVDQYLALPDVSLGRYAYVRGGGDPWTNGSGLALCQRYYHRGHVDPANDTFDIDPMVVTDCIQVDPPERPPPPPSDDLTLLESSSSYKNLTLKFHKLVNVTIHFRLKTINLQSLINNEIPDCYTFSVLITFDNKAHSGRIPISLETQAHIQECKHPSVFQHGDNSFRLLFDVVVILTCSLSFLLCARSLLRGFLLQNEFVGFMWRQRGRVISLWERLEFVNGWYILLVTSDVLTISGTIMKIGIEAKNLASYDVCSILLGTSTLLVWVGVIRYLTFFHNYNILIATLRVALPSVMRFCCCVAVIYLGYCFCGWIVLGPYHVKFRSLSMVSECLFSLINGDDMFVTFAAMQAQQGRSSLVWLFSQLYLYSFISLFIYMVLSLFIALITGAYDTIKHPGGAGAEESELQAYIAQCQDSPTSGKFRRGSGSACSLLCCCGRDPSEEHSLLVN
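TRPML1-DL cells, Tet-induced overnight (~16 h, 37 degrees C), loaded 45-90 min at room temperature with Ca8 no-wash calcium dye plus quencher. FDSS fluorescence: 10 s baseline, compound pin-transfer, 110 s agonist read, then EC80 54-4 (4uM final) and 110 s antagonist read.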
TRPML1 inh: inhibitors of human TRPML1 channel; actives 0.02% (n = 390,000); activity change, negative = inhibition, % (concentration not given with the values); TRPML1-inducible cells, Ca2+ dye fluorescence, FDSS; stronger effect = lower value; inhibition of EC80 agonist-evoked calcium signal; Q9GZU1; in the data active means activity change below about -50%; inconclusive means about -30% to -50%; inactive means above about -30%;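 also: stimulus is agonist 54-4 at its EC80 concentration; % is scaled to controls: 0 for no effect and ±100 for the full control effect; compound concentration not given in the record; the text of the record puts the active cut at -80%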
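Tet-induced TRPML1-DL cells loaded with Ca8 no-wash calcium dye were read kinetically on FDSS. Compound addition was followed by EC80 agonist 54-4 (4 uM final); inhibition was read over 110 s.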
ClpP mod: qHTS Assay for Activators of ClpP; purified B. subtilis ClpP, FRET peptide cleavage, 20 min; Potency, µM (highest dose often 57.5 µM), for the others: at the top dose activity change, negative = active; actives 1.9% (n = 340,000); active = well fitted falling curve with a large enough effect; inconclusive = small, poorly fitted or top-dose-only effect; inactive = no such curve, though single readings can be large or run the other way; also: potency is read from the fitted curve at half-maximal effect; the source files actives as falling curves though it sought activators and does not explain the sign; nearly all actives have a fitted effect of over 65% in size; many hits overshoot -100%
Target sequence (P80244 whole entry, looked up): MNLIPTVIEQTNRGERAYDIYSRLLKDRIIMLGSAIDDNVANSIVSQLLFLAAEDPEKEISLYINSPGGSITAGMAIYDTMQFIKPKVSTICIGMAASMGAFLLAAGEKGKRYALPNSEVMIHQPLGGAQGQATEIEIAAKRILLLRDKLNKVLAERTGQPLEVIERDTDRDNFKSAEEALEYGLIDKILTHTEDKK
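ClpP 10 microg/mL final, pH 8 Tris/KCl buffer with BSA, glycerol, Tween-20; compound pinned in; FRET-FV substrate; RT 20 min; Ex320/Em430; ΔFRET vs ADEP 5.8 microM, DMSO, no enzyme.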
Menin-MLL FL inh: inhibitors of human menin-MLL interaction, wild-type MLL peptide; Fluorescence polarization, fluorescein-MLL peptide displacement from menin; 290,000 tested, under 10 active; FP activity change, % at 61.4 µM; inconclusive = falling polarisation curve, or a change in total fluorescence; inactive = total fluorescence flat and polarisation flat or rising; no compound was filed as active; the % refers to the polarisation; negative = inhibition;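 also: % of control where 0% means no effect; inhibitors lower the polarisation; unlabelled MLL peptide was the positive control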
gsp agonist: agonists of gsp mutant (McCune-Albright syndrome); gsp mutant cells, cAMP HTRF, 30 min; control for the full effect not named in the record; AID 624287; Potency, µM (series often up to 76.9 µM), inactives show at the highest dose activation (cAMP increase), hits mostly activators; actives 0.13% (n = 340,000); active = well fitted activation curve with a large enough effect; inconclusive = small, poorly fitted or top-dose-only effect, or another doubt; inactive = no such curve, though single readings can be large or run the other way; cell line not stated here;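 also: phosphodiesterase inhibitor Ro 20-1724 added with compounds to block cAMP breakdown; potency is read from the fitted curve at half-maximal effect; nearly all actives have a fitted effect of over 60% in size; about a fifth of the inactives were tested at one dose only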
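Cells in DMEM/10% FBS with G418 were pretreated with compounds in DMSO plus […] (300 uM stock) for 30 min at 37C. cAMP was measured by HTRF (cAMP-d2 plus anti-cAMP antibody-K) after 30 min at room temperature.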
* marks the source's active call; other numbers are inactive results; ? = inconclusive; · = no result given; & = joins results of further samples; [ ] = dose if it differs, or a comment.

SMILES	gsp antagonist	TRPML1 agonist	TRPML1 inh	ClpP mod	Menin-MLL FL inh	gsp agonist
O=C(CCc1nnc(Cc2ccc(-c3ccccc3)cc2)o1)N1CCCC1	-7%	1.2	-9	·	-4.2	2%
NC(N)=NS(=O)(=O)c1ccc(NC(=S)NC(=O)c2ccc3c(c2)OCO3)cc1	7%	0.6	-2	0.8%	1.5	?
O=C(O)c1cccc(S(=O)(=O)N2CCCC2)c1	4%	0.4	0	-2.2%	1.7	-11%
Cc1ccc(O)c(-c2cc(-c3cccc(Br)c3)n[nH]2)c1	1%	0.2	-9	·	2.2	-13%
c1coc(CNc2ncnc3[nH]ncc23)c1	6%	0.2&-0.2	-1	-4.4%	-0.7	?
CCOc1ccccc1OCCOCCN1CC(C)OC(C)C1 (centres undefined)	3%	-0.5	29	2.1%	-2.6	-8%
Cc1ccc(S(=O)(=O)CCC(=O)OCC(=O)N(C)c2ccccc2)cc1	-2%	-0.4	-7	·	·	-4%[15.4 µM]
COc1ccccc1C(=O)Nc1onc2c1CCCC2	·	-1.1	0	-1.3%	·	·
CCOC(=O)C1CCN(C(=O)COc2ccc(S(=O)(=O)N3CCCC3)cc2C)CC1	-9%	0.0	-24	·	-4.5	-15%
O=C(CCn1cnnn1)N1CCCC(Nc2ccc(F)c(F)c2)C1 (centres undefined)	-17%	0.2	-13	32µM*	·	3%
CCOc1ccccc1CNS(=O)(=O)c1ccc2c(c1)CCCN2C(C)=O	·	-0.2	0	0.0%	·	·
Cc1cc(C)cc(N(C)S(=O)(=O)c2nnc(NC(=O)COc3ccc(Cl)cc3)s2)c1	·	0.7	3	1.7%	·	·
CC(=O)Nc1ccc(NC(=O)c2cccc(Oc3ccccc3)c2)cc1	10%	-1.6	1	-1.0%	-0.2	-1%[15.4 µM]
O=C(OCc1cc(Cl)ccc1OC(F)F)c1cncc(Br)c1	·	3.0	10	·	6.3	22%[15.4 µM]
CCN(CC)S(=O)(=O)c1ccc(C(=O)N2CCN(c3ncccn3)CC2)cc1	5%	-0.1	-25	·	-1.7	7%
CC(C(=O)N1CCc2ccccc21)N1CCN(S(=O)(=O)c2ccc(C(F)(F)F)cc2)CC1 (centres undefined)	-7%	0.8	-3	-0.3%	·	1%
O=C(CCN1C(=O)/C(=C/c2ccccc2)SC1=S)NCCc1ccc(O)cc1	8%	0.6	4	1.7%	·	?
COc1cccc(CNS(=O)(=O)c2ccc(S(=O)(=O)NC3CC3)cc2)c1	13%	-0.2	8	·	-0.6	1%[15.4 µM]
CCCCCC(=O)N1C[C@@H](n2cc(COC(=O)c3ccccc3)nn2)[C@H](O)C[C@@H]1c1ccc(C)cc1	·	-0.3	-3	-0.9%	·	22%
CC(C)(C)OC(=O)C[C@H]1C/C=C\C[C@@H](CC(=O)N(CCO)Cc2ccccc2)C(=O)N[C@H](Cc2ccccc2)COC1=O	-13%	-0.2	-9	2.7%	·	·
CCCCn1c(O)c(/C=C2\C=NN=C2c2ccccc2)sc1=S	2%	1.7	-2	1.0%	-5.3	3%
CCOc1cc(N2CCOCC2)c(OCC)cc1NC(=O)Cn1[nH]c(=O)c2ccccc2c1=O	8%	-0.7	7	1.5%	-7.3&-1.5	3%
Nc1ccc2nc3c(c(Cl)c2c1)CCCC3	7%	0.2	2	·	-6.5	22%[15.4 µM]
CCCCC(=O)OC1=C(C(=O)c2ccccc2)N(CC)S(=O)(=O)c2ccccc21	·	1.7	-9	-0.2%	·	·
O=C(CC[C@H]1O[C@@H](n2ccc(=O)[nH]c2=O)[C@H](O)[C@@H]1O)N1CCN(Cc2cccc3ccccc23)CC1	·	0.0	4	0.5%	·	·
COC(=O)[C@@]12CCCCN1[C@H](c1ccc(-c3ccc(OC)cc3)cc1)[C@@H]1C(=O)N(C)C(=O)[C@@H]12	-6%	0.1	64	-6.5%	·	2%
Cc1ccc2nc(COc3ccccc3NC(=O)c3ccccc3F)cc(=O)n2c1	·	-0.3	8	-6.7%	·	·
C[C@H](NC(=O)c1[nH]cnc1C(=O)Nc1cccc(Cl)c1)c1ccccc1	0%	-0.6	2	16%	·	?
O=C(/C=C/c1ccc(F)cc1)NCCC1=CCCCC1	-11%	4.9	-7	-1.7%	1.4	?
CC1(C(=O)NC(=S)NNC(=O)c2ccncc2)CCCCC1	15%	21	14	2.6%	6.6	-10%
CCOc1ccc(S(=O)(=O)c2c(C(=O)c3ccccc3)cnc3cc4c(cc23)OCCO4)cc1	3%	0.7	-6	?	8.1	-17%
CCCCn1c(SCn2nnc3ccccc3c2=O)nc2cc(S(N)(=O)=O)ccc21	-6%	1.3	10	-15%	3.2	10%
O=C(Nc1cc(-c2ccc(F)c(F)c2)no1)c1ccccc1F	·	0.6	-8	4.9%	·	·
CCCCN(CC)CCCNC(=O)c1cc2c(=O)oc3ccc(C)cc3c2s1	·	-1.1	12	-27%	·	·
CN(C)c1ccc(Nc2c3c4c(cccc4n(C)c2=O)C(=O)c2ccccc2-3)cc1	-8%	0.8	9	-1.5%	?	-3%
COc1ccc(C(=O)N2CCCC(c3nc(-c4cc(OC)c(OC)c(OC)c4)no3)C2)cc1 (centres undefined)	-10%	-0.6	2	1.0%	1.0	11%
COC(=O)c1sc(-c2ccc(C(C)(C)C)cc2)cc1NC(=O)CSCC(=O)O	?	4.0	-12	4.4%	6.0	4%
CCCCN1C[C@H](Cc2ccccc2)[C@@H](CC(=O)Nc2ccccc2)C1=O	-15%	-0.3&-0.9	3	-2.7%&-0.3%	-3.8	0%
O=C(CSc1nnnn1C1CCCCC1)Nc1ccc(F)cc1	·	0.4	6	·	-2.2	3%[15.4 µM]
O=C(O)COc1ccc(/C=C/c2nc(-c3ccccc3O)n[nH]2)cc1	-6%	-0.3	-12	-14%	-2.1	-126%[inhibitor]
COc1ccccc1C(=O)NNC(=O)c1ccccc1[N+](=O)[O-]	6%	0.5	10	-3.0%	5.4	-55%[inhibitor]
Cc1ccccc1CNC(=O)CCn1nc(C)c2c(C)n(-c3ccccc3)nc2c1=O	-5%	1.5	6	-3.9%	·	-1%
Cc1nccn1CCOc1ccccc1Cl	9%	-0.3	-7	0.5%	0.3	-14%
O=C(NC1(C(F)(F)F)NC(=O)N(C2CCCCC2)C1=O)C1CC1 (centres undefined)	8%	-0.2	-22	-0.5%	-1.4	3%
O=C(CSc1nc(O)c(Cc2ccccc2)c(=O)[nH]1)N1CCOCC1	10%	2.5	-3	0.2%	5.3	-5%
O=C(O)c1[nH]c2ccc(Cl)cc2c1CC(=O)N1CCN(c2ccccc2)CC1	-11%	-0.3	16	-3.3%	10	-7%
CC1(c2nnc(-c3cccc(Cl)c3)o2)CC(c2ccc(Br)cc2)=NO1 (centres undefined)	2%	-0.8	15	0.7%	·	·
COc1ccc(S(=O)(=O)Nc2ccc(-n3cccc3)cc2)cc1	-7%	1.8	-11	·	4.7	-2%[15.4 µM]
COc1ccc([C@H]2C[C@@H](n3cc(COC(=O)c4ccccc4)nn3)[C@H](O)CN2C(=O)c2cccs2)cc1	·	-0.5	-8	-0.4%	·	-10%
COc1ccc(C2(O)CCN(C(=O)c3ccc4c(c3)OCO4)CC2)cc1	6%	3.9	14	-6.7%	5.5	27%
Cc1ccc(-c2nn(-c3ccccc3)cc2/C=N/O)cc1	11%	1.5	-13	·	1.0	-4%
CC1=C(C(=O)Nc2ccccc2)C(c2cccnc2)n2nc(SCc3ccccc3Cl)nc2N1 (centres undefined)	·	-0.2	-1	-0.4%	·	·
CCn1c(=N)n(CCOc2ccc(OC)cc2)c2ccccc21	3%	-0.1	-6	0.1%	1.5	-9%
CCOc1ccc(-n2c(SCC(=O)Nc3ccc(F)cc3)nc3c([nH]c4ccccc43)c2=O)cc1	·	1.0	-8	-7.9%	·	·
COC(=O)CCN(C(=O)C12CC3CC(CC(C3)C1)C2)c1ccccn1	6%	-0.4	-9	-4.7%	-1.0	28%
Nn1c(SCC(=O)NC2CCCCC2)nnc1-c1ccco1	9%	-0.7	-6	2.5%	·	-2%
CC1=CCC2C(=O)N(c3ccc4ccccc4n3)C(=O)C2C1 (centres undefined)	10%	-0.8	-14	-4.5%	-2.4	5%
O=C(c1ccc(C(=O)N2CCCc3ccccc32)nc1)N1CCCc2ccccc21	-10%	0.3	0	0.6%	1.5	-1%
Clc1ccc(C(c2ccccc2)N2CCN(c3ccccn3)CC2)cc1 (centres undefined)	-15%	0.8	-5	·	0.7	12%[15.4 µM]
CN(CC(=O)Nc1ccc(F)cc1)CC(=O)NC1CCCCC1	4%	-0.5	32	3.0%	·	-8%

2 of these compounds in a different format:
SMILES: Cc1ccc(-c2nn(-c3ccccc3)cc2/C=N/O)cc1
  gsp antagonist: 11%
  TRPML1 agonist: 1.5
  TRPML1 inh: -13
  ClpP mod: ·
  Menin-MLL FL inh: 1.0
  gsp agonist: -4%

SMILES: CC1=C(C(=O)Nc2ccccc2)C(c2cccnc2)n2nc(SCc3ccccc3Cl)nc2N1 (centres undefined)
  gsp antagonist: ·
  TRPML1 agonist: -0.2
  TRPML1 inh: -1
  ClpP mod: -0.4%
  Menin-MLL FL inh: ·
  gsp agonist: ·

Following part
SMILES	gsp antagonist	TRPML1 agonist	TRPML1 inh	ClpP mod	Menin-MLL FL inh	gsp agonist
Cc1ccc2sc(NC(=O)c3cccc(N4C(=O)CCC4=O)c3)nc2c1C	-30%	1.0	-5	2.1%	·	23%
O=C(Cc1ccc(NC(=O)C2CCCN(C(=O)CCc3ccccc3)C2)cc1)Nc1ccc(C(=O)N2CCOCC2)cc1 (centres undefined)	10%	3.5	40	1.0%	·	·
CC1(C)C(=O)NCCN1C(=O)CC1C(=O)NCCN1Cc1cccc(C(F)(F)F)c1 (centres undefined)	11%	0.4	4	-13%	·	-58%[inhibitor]
Cc1cccc(N2CCN(C(=O)CCn3c(=O)c4cccn4c4cccnc43)CC2)c1C	·	0.7	38	-17%	·	·
O=C(CSc1nnc(-c2ccc(F)cc2)c2ccccc12)Nc1cccc(Cl)c1	-10%	1.2	-2	-2.0%	-7.7	31%

Filtered by structure: the entries above with a CF3 group.
SMILES	gsp antagonist	TRPML1 agonist	TRPML1 inh	ClpP mod	Menin-MLL FL inh	gsp agonist
CC(C(=O)N1CCc2ccccc21)N1CCN(S(=O)(=O)c2ccc(C(F)(F)F)cc2)CC1 (centres undefined)	-7%	0.8	-3	-0.3%	·	1%
O=C(NC1(C(F)(F)F)NC(=O)N(C2CCCCC2)C1=O)C1CC1 (centres undefined)	8%	-0.2	-22	-0.5%	-1.4	3%
CC1(C)C(=O)NCCN1C(=O)CC1C(=O)NCCN1Cc1cccc(C(F)(F)F)c1 (centres undefined)	11%	0.4	4	-13%	·	-58%[inhibitor]
